Biofilm kill mix: mixtures killing C. albicans biofilm | AID 1242 | 120,000 tested, 0.02% active | inhibition, % at 7.6 µM | C. albicans biofilm persisters + clotrimazole, fluorescence viability; primary screen in compound mixtures of four per well;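 active = inhibition above 30.3% in the primary screen of four-compound pools, then above 30% when the compound was retested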;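 note: compounds exposed to preformed 24 h biofilms for 48 h; the number belongs to the whole pool; some results filed as inactive read as strong as hits; inactives centre near 12; 0% = biofilm with clotrimazole alone and 100% = kill control; retested singly at about 60 µM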
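Probe or stimulus – Clotrimazole 50 µg/mL co-treatment · System – C. albicans biofilms · Schedule – 24 h biofilm formation, then 48 h compound exposure, 37 °C · Evaluation – percent inhibition of biofilm viability · Technique – 2-h Alamar Blue fluorescence, 535/590 nm excitation/emission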
Numbers without * were called inactive. Some of the compounds tested. The share of hits here may be higher or lower than overall.

SMILES	Biofilm kill mix
O=C(Nc1cc(S(=O)(=O)N2CCOCC2)ccc1-n1cncn1)c1ccc(Cl)cc1	18
CC(C)(C)OC(=O)N/N=C\c1ccc(OC(=O)c2cccs2)cc1	13
c1ccc(CN(Cc2ccccc2)c2nn[nH]n2)cc1	7
COc1ccc(C=O)cc1Cn1c(C)cc(C)c(C#N)c1=O	3
CC(C)Oc1cccc(C(=O)NC(=S)Nc2ccc(N3CCN(C)CC3)cc2)c1	-2
C=C1CCN(C(C)C(=O)O)S(=O)(=O)c2ccccc21 (stereo unspecified)	9
COc1ccc(CN(C)CC(=O)Nc2ccccc2C(F)(F)F)c(OC)c1	7
O=C(Nc1ccc(N2CCOCC2)cc1)C1(S(=O)(=O)c2ccccc2)CC1	8
CC(=O)[C@H]1[C@H](c2cccc(Cl)c2)C(C#N)(C#N)[C@@H]2c3ccccc3C=CN21	20
Cc1onc(-c2ccccc2)c1-c1ccnn1C(=O)NC(C)C	7
O=C(Oc1cccc(NC2=NS(=O)(=O)c3ccccc32)c1)c1ccncc1	10
O=C(c1ccc2c(c1)OCCO2)N1CCCC(CNS(=O)(=O)c2cccs2)C1 (stereo unspecified)	6
Cn1ccnc1Sc1ccc(/C=N/NC(=O)c2ccccc2O)cc1[N+](=O)[O-]	13
O=C(CN1CCOCC1)N/N=C/c1ccc(-c2ccc(C(=O)O)cc2)o1	7
CC(C)c1nc(SCC(=O)Nc2ccc(N(C)C)cc2)c2ccccc2n1	11
O=C(CSc1cccc[n+]1[O-])C12CC3CC(CC(C3)C1)C2	14
Cn1c(SCC(=O)NNC(=O)Nc2ccccc2)nnc1-c1ccccc1	27
O=S(=O)(c1cccs1)N1CCN(c2ccc(O)cc2)CC1	6
O=C(NC(=S)Nc1ccc(Cc2ccncc2)cc1)c1ccc(F)cc1	10
O=C(CNC(=O)c1ccc(Cl)cc1)N/N=C/c1cccnc1	34
Cc1ccc[n+](CC(=O)c2ccc(NC(=O)c3ccccc3)cc2)c1	-2
CSc1c(CC(=O)Nc2ccc(F)cc2)n(Cc2ccccc2)c2ccccc12	12
Cn1nccc1NS(=O)(=O)c1ccc(C(C)(C)C)cc1	7
CCOc1ccc(NC(=O)C2CCCN2C(=O)OCc2ccccc2)cc1 (stereo unspecified)	-1
C[C@@H]1C=C(C(=O)NCc2ccccc2)O[C@H](OCc2ccc(CO)cc2)C1	13
COc1ccccc1OCCOCCOc1ccc(C)cc1[N+](=O)[O-]	17
O=C(CCCOc1ccc(Cl)cc1Cl)n1nnc2ccccc21	9
CC(=O)OCc1cc(-c2nn(C)c(=O)c3ccccc23)ccc1C	17
CN(C)CC(=O)Nc1ccc2cn[nH]c2c1	11
CCCn1c(/C=C/c2ccco2)nc2ccccc21	-7
C#CCOCCOCCOCCNc1nc(N2CCN(C(=O)[C@H](Cc3ccc(O)cc3)n3cc([C@@H](N)C(C)CC)nn3)CC2)nc(N2CCN(C(=O)[C@H](CCCCN)n3cc([C@@H](N)CO)nn3)CC2)n1 (stereo partly specified)	11
COc1cccc(NC(=O)c2ccc(S(=O)(=O)N(C)C)cc2)c1	8
Cc1nnsc1C(=O)Nc1cccc(Cl)c1C	12
COc1ccc(C)cc1NC(=O)C(NC(=O)c1cc(OC)c(OC)c(OC)c1)C(C)C (stereo unspecified)	38
Cn1c2ccc(F)cc2c2ncn(CC3CCCO3)c(=O)c21 (stereo unspecified)	15
CC1(C)CN(O)CCN1O	10
S=C(Nc1ccccn1)NC1CCCCC1	19
Cc1cc(C)nc(SCc2ccc(C(=O)N/N=C/c3ccccn3)cc2)n1	3
O=C(NCCNc1ccc([N+](=O)[O-])cc1)c1ccc(Cl)cc1	17
COc1ccccc1NS(=O)(=O)c1ccc(NC(=O)Cc2cccs2)cc1	7
O=C(Nc1nccs1)c1ccc(NC(=O)C2CC=CCC2C(=O)O)cc1 (stereo unspecified)	8
CC(=O)c1ccc(NC(=O)COC(=O)c2ccccc2Nc2ccccc2)cc1	-1
C/C=C/C(=O)N1CC2(CC(c3cccc(NC(=O)CC(c4ccccc4)c4ccccc4)c3)=NO2)C[C@H]1C(N)=O (stereo partly specified)	5
CCC1=C(OC(=O)N(CC)CC)N2C(=O)OC(=NCCOC)[C@]2(Cc2ccccc2)[C@H]2C1=CC[C@H]1C(=O)NC(=O)[C@H]12	14
CNC(=O)C(=O)NCC1OCCN1S(=O)(=O)c1ccc2c(c1)OCCO2 (stereo unspecified)	2
N#C/C(=C\c1ccc(-c2ccccc2[N+](=O)[O-])o1)C(N)=O	4
CC1CN(C(NC(=O)c2ccccc2)C(Cl)(Cl)Cl)CC(C)O1 (stereo unspecified)	19
O=C(c1ccco1)c1cn(CC(=O)N2CCCC2)c2ccccc12	15
Cc1nnc(SCC(=O)N2CCN(C(=O)c3ccco3)CC2)n1-c1ccccc1	16
O=C(Cc1ccc(F)cc1)Nc1cccc2cccnc12	15
CCN(CC)CCCNC(=O)Cn1cnc2ccc(S(=O)(=O)N3CCC(C)CC3)cc2c1=O	15
COc1cc(C(=O)Nc2nc3ccccc3[nH]2)ccc1OC(F)F	7
CC(C)(C)c1cc(Cl)c(O)c(NC(=S)NC(=O)c2cccnc2)c1	11
CCn1c(O)c(N=NC(=O)CNc2cccc(C)c2)c2ccccc21	20
COc1ccc(N2CCN(C(=O)CCS(=O)(=O)c3ccc(OC)cc3)CC2)cc1	11
O=C(c1ccccc1)N1CCN(CC(O)COC2CCCCC2)CC1 (stereo unspecified)	17
CS(=O)(=O)c1ccc(C(=O)NC2CCCCC2)cc1	12
CCOC(=O)c1sc(=NC(=O)c2cccs2)n(C)c1C	15
CNC(=O)N1c2ccccc2NC(=O)CC1C (stereo unspecified)	-2
CC(O)(C#CCN1CCCCCC1)c1ccccc1 (stereo unspecified)	-10
The results go on.
SMILES	Biofilm kill mix
CC(=O)c1c(C)[nH]c(C(=O)NC(C)c2ccccc2)c1C (stereo unspecified)	8
Cc1cc(C)c(S(=O)(=O)NC(CC(=O)O)c2cccc([N+](=O)[O-])c2)c(C)c1 (stereo unspecified)	5
O=C(NC(Cc1ccccc1)C(=O)O)/C(=C\c1ccc(Cl)cc1)NC(=O)c1ccccc1 (stereo unspecified)	-3
NNC(=O)CNc1cccc(Cl)c1	4
C/C(Cc1ccccc1)=N\NC(=O)CNC(=O)COc1cccc(C)c1	7
CCCNC(=O)C(Sc1ccccc1)c1ccccc1 (stereo unspecified)	9
CCCOc1ccc(/C=N/NC(=O)CSCc2ccc([N+](=O)[O-])cc2)cc1OCC	7
O=C(c1cccc([N+](=O)[O-])c1)n1nc(-c2ccccc2)nc1NCc1ccccc1	17
C#CCNc1c2c(nc3nnnn13)CCCC2	13
COc1ccc(-c2cc(C(=O)Nc3ccccc3O)c3ccccc3n2)cc1OC	25
Cc1nc(SCC(=O)O)c(C#N)c2c1CCCC2	9
O=C(COc1cccnc1[N+](=O)[O-])N1N=C(c2ccc(Cl)cc2)CC1c1ccco1 (stereo unspecified)	9
O=[N+]([O-])c1ccc2c(c1)C=C1CCCCC1(N1CCCCC1)O2 (stereo unspecified)	18
O=C(C1CCN(S(=O)(=O)c2cccs2)CC1)N1CCN(Cc2ccccc2)CC1	4
C(#CC12CC3CC(CC(C3)C1)C2)CN1CCOCC1	9
O=S(=O)(c1c(F)cccc1F)N1CCN(C(=S)NCc2ccc3c(c2)OCO3)CC1	14
C=CCn1c(C)c(C(C)=O)c(N2CCN(C(c3ccccc3)c3ccccc3)CC2)nc1=S	11
CCOC(=O)[C@@H]1CCN(Cc2ccccc2)C[C@H]1c1ccccc1	17
CN1CCC(=NNC(=O)CSc2ccc(Cl)cc2)CC1	14
Cc1ccc2nc3nc(NCC4CCCO4)c(C(=O)NC4CCCC4)cc3c(=O)n2c1 (stereo unspecified)	14

Filtered by structure: the entries above with a halogen (19)
SMILES	Biofilm kill mix
O=C(Nc1cc(S(=O)(=O)N2CCOCC2)ccc1-n1cncn1)c1ccc(Cl)cc1	18
COc1ccc(CN(C)CC(=O)Nc2ccccc2C(F)(F)F)c(OC)c1	7
CC(=O)[C@H]1[C@H](c2cccc(Cl)c2)C(C#N)(C#N)[C@@H]2c3ccccc3C=CN21	20
O=C(NC(=S)Nc1ccc(Cc2ccncc2)cc1)c1ccc(F)cc1	10
O=C(CNC(=O)c1ccc(Cl)cc1)N/N=C/c1cccnc1	34
CSc1c(CC(=O)Nc2ccc(F)cc2)n(Cc2ccccc2)c2ccccc12	12
O=C(CCCOc1ccc(Cl)cc1Cl)n1nnc2ccccc21	9
Cc1nnsc1C(=O)Nc1cccc(Cl)c1C	12
Cn1c2ccc(F)cc2c2ncn(CC3CCCO3)c(=O)c21 (stereo unspecified)	15
O=C(NCCNc1ccc([N+](=O)[O-])cc1)c1ccc(Cl)cc1	17
CC1CN(C(NC(=O)c2ccccc2)C(Cl)(Cl)Cl)CC(C)O1 (stereo unspecified)	19
O=C(Cc1ccc(F)cc1)Nc1cccc2cccnc12	15
COc1cc(C(=O)Nc2nc3ccccc3[nH]2)ccc1OC(F)F	7
CC(C)(C)c1cc(Cl)c(O)c(NC(=S)NC(=O)c2cccnc2)c1	11
O=C(NC(Cc1ccccc1)C(=O)O)/C(=C\c1ccc(Cl)cc1)NC(=O)c1ccccc1 (stereo unspecified)	-3
NNC(=O)CNc1cccc(Cl)c1	4
O=C(COc1cccnc1[N+](=O)[O-])N1N=C(c2ccc(Cl)cc2)CC1c1ccco1 (stereo unspecified)	9
O=S(=O)(c1c(F)cccc1F)N1CCN(C(=S)NCc2ccc3c(c2)OCO3)CC1	14
CN1CCC(=NNC(=O)CSc2ccc(Cl)cc2)CC1	14

Next part
SMILES	Biofilm kill mix
CCOC(=O)c1c(NC(=O)COC(=O)c2nc(Cl)ccc2Cl)sc2c1CCC2	0
CCC(C)c1ccccc1NC(=O)CN1CCN(C/C=C/c2ccccc2)CC1 (stereo unspecified)	9
C=CCNC(=S)NNC(=O)CSc1nc2ccccc2s1	12
CN(C)CCCN1c2ccccc2CCc2ccc(Cl)cc21	6
COc1ccc(S(=O)(=O)N2CCOCC2)cc1Br	11
COc1ccc(C2CC(c3ccccc3)=NN2C(=O)COC(=O)CNC(=O)c2ccccc2)cc1 (stereo unspecified)	10
CCO[C@H]1OC(C(=O)N2CCOCC2)=C[C@@H](C)[C@@H]1CCCO	12
O=Nc1c(-c2ccccc2)cc2ccccn12	-3
O=C(NCc1ccco1)C(=O)NCC1OCCCN1S(=O)(=O)c1ccc(F)cc1 (stereo unspecified)	16
O=C(O)/C=C/c1ccc(OCc2cccc(F)c2)cc1	26
Cc1ccc2c(c1)nnn2C1CCN(CC(=O)NCc2ccccc2F)CC1	-13
CC(NC(=O)COC(=O)CCc1ccccc1)c1ccccc1 (stereo unspecified)	11
COCc1nnc(NC(=O)c2ccccc2Oc2ccccc2)s1	14
Cc1nc(C(=O)NC2CC2)sc1C1(C)CC(c2cccc([N+](=O)[O-])c2)=NO1 (stereo unspecified)	15
COc1ccc(CNC(=O)CN(CCC(C)C)S(=O)(=O)c2ccc3c(c2)OCCO3)cc1	-12
Cc1nc(NCCc2ccccc2)c(C#N)c(C)c1[N+](=O)[O-]	21
C/C(=N\NC(=O)Nc1ccccc1)c1ccc2ccccc2c1	6
CC1=C(C(=O)OCc2ccccc2)C(c2ccsc2)C(C#N)=C(N)O1 (stereo unspecified)	4
COc1cc(/C=C/C(=O)OCC(=O)NC(=O)NC(C)C)ccc1OCC#N	7
CCCn1c(=O)c2[nH]c(C3CCCC3)nc2n(CCC)c1=O	10
Oc1cccc(NC(=S)N=Nc2c(O)[nH]c3ccc(Br)cc23)c1	12
CN(C)C(=O)C12CCC(C)(C(=O)C1Br)C2(C)C (stereo unspecified)	32
CCOc1ccc(NC(=O)NC23CC4CC(CC(C4)C2)C3)cc1	11
CCNC(=O)c1ccccc1NC(=O)c1cccc(S(=O)(=O)N2CCOCC2)c1	14
O=C(c1ccc(Cl)cc1)C1CCCN(Cc2cccn2-c2ccccn2)C1 (stereo unspecified)	17
N#Cc1c(-c2cccnc2)c2c([nH]c1=O)-c1ccccc1OC2	9
CC(OC(=O)c1nsc(Cl)c1Cl)C(=O)NC(C)(C)C (stereo unspecified)	11
Oc1ccc(-c2nnc(Nc3ccccc3)c3ccccc23)cc1	21
Cc1cc(=O)[nH]c(SCC(=O)/C=C2\N(C)c3ccccc3C2(C)C)n1	16
Cc1cc[n+](CC(=O)c2cc3ccccc3oc2=O)cc1	10
O=C(Cc1c[nH]c2ccccc12)NCc1ccccc1F	11
Cc1ccccc1NC(=O)c1c([N+](=O)[O-])c(C(C)(C)C)nn1C	-12
Cc1cnccc1CN(C)C(=O)CC1C(=O)NCCN1CC1CCCCC1 (stereo unspecified)	18
COC(=O)c1ccc(-c2ncc[nH]2)cc1	14
CCOc1ccc(-c2ccc(SCC(=O)N3CCOCC3)nn2)cc1	27
COCCNS(=O)(=O)c1ccc2c(c1)C(=NO)c1cc(S(=O)(=O)NCCOC)ccc1-2	21
Cc1cc(/C=N/NC(=O)c2ccncc2)c(C)n1-c1cccc(C(F)(F)F)c1	15
CCCn1ncc(/C=N/O)c1C	27
CC(C)N(C(=O)CSc1nnc(NC(=O)c2cccs2)s1)C(C)C	11
CCOC(=O)c1sc(NC(=S)NC(=O)c2ccccc2)nc1C	4

The last three compounds of the section above lead into the next.
SMILES	Biofilm kill mix
CCCn1ncc(/C=N/O)c1C	27
CC(C)N(C(=O)CSc1nnc(NC(=O)c2cccs2)s1)C(C)C	11
CCOC(=O)c1sc(NC(=S)NC(=O)c2ccccc2)nc1C	4
C=CCN(CC=C)C(=O)Nc1cc(OC)ccc1OC	17
Cc1nnc(NC(=O)CCSc2ccc(Cl)cc2)s1	-30
Cc1nn(CC2CC2)c(=O)n1-c1ccccc1	11
COc1ccccc1/C=N/NC(=O)CNC(=O)c1ccccc1	16
CN1CCN(NC(=O)c2cc(S(=O)(=O)N3CCOCC3)c(Cl)cc2Cl)CC1	1

Assay outcomes as filed in PubChem.
